HSD17B inhib = inhibitors of human HSD17B10 dehydrogenase. actives 7.6% (n = 75,000). Q99714. recombinant HSD17B10, NADH fluorescence kinetic; many of its hits are not listed in these tables. Potency, µM (doses to about 57.1 µM), for the others: at the highest dose activity change, negative = inhibition, most hits filed as inhibitors; active means well fitted inhibition curve with a large enough effect; inconclusive means small, poorly fitted or top-dose-only effect; inactive means no such curve, though single readings can be large or run the other way;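 further: the protocol describes HADH2 (HSD17B10) and not the HSD17B4 of the title; nearly all actives have a fitted effect of over 70% in size; most hits overshoot -100% by far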
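20 nM HADH2, pH 9.0 Tris/Tween; cpd preinc 15 min RT; start w/ 1 mM NAD+ + 90 uM b-hydroxybutyryl-CoA; kinetic fluor ex360/em450 q30s x 4 min; delta last-first.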
* = called active by the depositor; ? = inconclusive; [ ] = remark or other dose. On the % scale 0 is the no-effect control and ±100 the full control effect; potency means the concentration at half of the fitted maximal effect.

SMILES	HSD17B inhib
NC(=O)CCN(Cc1ccccc1)S(=O)(=O)c1ccccc1	5%
COc1ccccc1OCc1ccc(C(=O)N2CCN(C(=O)c3ccco3)CC2)cc1	-10%
COC(=O)N1CCC2(CCN(C(=O)Nc3ccc(OC)cc3)CC2)CC1	5%
COCCN(CCOC)c1nc(C)nc2c1nc(-c1ccccc1)n2CCCN(C)C	32µM*
COc1ccc(OC)c(C2C(C#N)=C(N)Oc3cc(N)ccc32)c1 (stereo not drawn)	5%
COc1ccc(C2C(C(=O)Nc3cc(C)on3)c3ccccc3C(=O)N2C)cc1OC (stereo not drawn)	25µM*
O=C(c1sc2ccccc2c1Cl)N(Cc1ccco1)C1CCS(=O)(=O)C1 (stereo not drawn)	-2%
N#CC(C(=O)NCCc1ccccc1)c1nc2ccccc2nc1N1CCOCC1 (stereo not drawn)	4%
Cc1ccc2oc(=O)c3cnn(CC(=O)N4CCc5ccccc5C4)c3c2c1	-4%
NS(=O)(=O)O	5%
Cc1c(C(C)O)nnn1-c1nonc1N (stereo not drawn)	-5%
O=C(Nc1c(F)cc(F)cc1Br)c1cc(-c2ccc(O)cc2)on1	-6%
COc1cc(OC)c(OC)cc1CNC1CCCCCC1	14%
CCC(C(N)=O)c1ccccc1 (stereo not drawn)	3%
Cc1nc2cc(C(=O)O)ccc2s1	5%
C(=N\n1cnnc1)/c1ccc(-c2ccccc2)cc1	-18%
Nc1nonc1C(=O)NCCNC(=O)c1ccccc1F	-4%
C[C@@H](C[C@H](N)C(=O)O)C(=O)O	-1%[11.4 µM]
O=C(O)C1(P(=O)(c2ccccc2)c2ccccc2)CCC1	5%
Cc1ccc2oc(=O)c3cnn(CC(=O)NC4CCN(Cc5ccccc5)CC4)c3c2c1	1%
Cc1nn(Cc2ccc(Cl)cc2)c(C)c1NC(=O)c1cc(-c2ccco2)on1	-21%
O=C(c1cc(-c2cccnc2)nc2ccc(Br)cc12)N1CCN(c2ncccn2)CC1	6%
CCCCOC(=O)Nc1ccccc1C(N)=O	7%
O=C(Oc1ccc2c(=O)c(Cl)coc2c1)c1ccncc1	32µM*
Nc1nnc(SCc2ccccc2F)n1-c1ccccc1	4%
COC(=O)c1[nH]c2ccccc2c1NC(=O)CN1CCCc2ccccc21	-4%
Cc1nc2cnc(N3CCN(C)CC3)nc2n(C)c1=O	25µM*
CCC1CCCCN1Cc1ccc(CNS(=O)(=O)c2ccc3c(c2)oc(=O)n3C)o1 (stereo not drawn)	-5%
Cc1ccc(NC(=O)CCn2cnc3ccccc3c2=O)cc1Cl	4%
CN(c1cccc(NC(=O)CN2C(=O)c3ccccc3S2(=O)=O)c1)S(C)(=O)=O	-12%
CCOC(=O)CSc1nnc(CNC(=O)c2ccc(OC)cc2OC)n1-c1ccc(OC)cc1	-1%
CCOC(=O)C1CCN(C(=O)c2cn(CCOC)c(=O)c3c2c2ccccc2n3C)CC1	25µM*
CC1(C)Cc2noc(N)c2C(C)(C)N1OC(=O)c1cccs1	10%
O=C(C1CCC(CNc2c(N3CCCCC3)c(=O)c2=O)CC1)N1CCCCC1 (stereo not drawn)	-2%
COc1nc(NCc2ccco2)nc(N2CCC(C)CC2)n1	3%
CC1=NN(c2ccc(S(=O)(=O)O)cc2)C(=O)/C1=C\c1ccc(Cl)cc1	?
CC(C)CN(C(=O)COC(=O)CCN1C(=O)c2ccccc2C1=O)C1CCS(=O)(=O)C1 (stereo not drawn)	1%
Cc1cccc(CSc2nnc(-c3ccco3)n2C)c1	5%
CN1CC(=O)NC1=NC(=O)c1ccc(Cl)c(S(=O)(=O)N2CCCCCC2)c1	-9%
Cc1ccc(-n2nnc3c(=O)n(CC(=O)N4CCOCC4)cnc32)cc1	9%

Look-ups from above.
HSD17B inhib result of O=C(C1CCC(CNc2c(N3CCCCC3)c(=O)c2=O)CC1)N1CCCCC1 (stereo not drawn) = -2%
HSD17B inhib result of COC(=O)c1[nH]c2ccccc2c1NC(=O)CN1CCCc2ccccc21 = -4%

(cont.)
SMILES	HSD17B inhib
CCOC(=O)C1=C(c2ccccc2)OC(N)=C(C#N)C1c1ccco1 (stereo not drawn)	4%
Cn1c(=O)c2c(nc(SCc3ccccn3)n2C)n(C)c1=O	0%
CC(=O)Nc1cccc2c1[n+]([O-])c(C)c(C)[n+]2[O-]	4%
c1ccc2nc3c(nc2c1)c1ccccc1n3CCN1CCOCC1	-2%
CCN=C1SC(CC(=O)Nc2ccccc2OCC)C(=O)N1CC (stereo not drawn)	5%
CO[C@@H]1CC[C@@]2(C)[C@@H](CC[C@@]3(C)[C@H]2CC=C2[C@H]4CC(C)(C)[C@H](O)[C@@H](OC(C)=O)[C@]4(CO)[C@H](O)C[C@]23C)[C@@]1(C)CO (tested in a mixture with another compound)	-19%[25.6 µM]
N#Cc1nc(-c2ccc(OCc3ccccc3)cc2)oc1NCc1cccnc1	?
Cc1cc(C)n(C(C)n2nc(C)cc2C)n1	7%
COc1ccc(OC)c(N/C(C)=C/C(=O)c2ccc(C)o2)c1	4%
COc1ccc(-c2nc(CS(=O)CC(=O)NCCCN3CC(C)CC(C)C3)c(C)o2)cc1OC (stereo not drawn)	25µM*
Cn1cccc1C(=O)N1CCC[C@@]2(CCN(c3cccc(-c4ccccc4)c3)C2)C1	?
CCC(=O)N1CCc2cc(S(=O)(=O)CCC(=O)N3CCc4ccccc4C3)ccc21	0%
CCOC(=O)c1ccc(NC(=O)N2CC(C)OC(C)C2)cc1 (stereo not drawn)	0%
COc1ccc(S(=O)(=O)NC(CC(=O)NCc2ccc3c(c2)OCO3)c2ccco2)cc1 (stereo not drawn)	3%
CCc1c(O)nc(SCC(=O)Nc2ccccc2OC)[nH]c1=O	-5%
CC1CCC(C(C)C)[C@H](O)C1 (stereo partly drawn)	2%
CCN1CCc2c(sc(NC(=O)c3ccc(S(=O)(=O)N4CCOCC4)cc3)c2C(=O)OC)C1	-10%
Cn1c(=O)c2c(nc(CN3CCN(C(=O)c4ccco4)CC3)n2Cc2ccc(F)cc2)n(C)c1=O	-18%
Cc1cc2oc(=O)c3c(c2cc1OCc1nn[nH]n1)CCCC3	25µM*
C=CCN1C(=O)CN=C1Nc1cc(C)ccc1C	5%
CN1CCN(S(=O)(=O)c2cccc(C(=O)NC3CCCc4ccccc43)c2)CC1 (stereo not drawn)	-5%
CN(C)CC[C@@H](C(=O)C(C)(C)C)c1ccccn1	3%[11.4 µM]
C=C(c1cccc2ccccc12)P(=O)(O)O	9%
CCCCCOC(=O)c1ccc(NC(=O)c2ccco2)cc1	-15%
CC(CN1CCN(C)CC1)OC(=O)c1ccc(Cl)cc1 (stereo not drawn)	11%
Cc1nc2c3cnn(-c4ccc(C)c(C)c4)c3ncn2n1	-6%
Cc1cccc(N2CCN(C(=O)COc3cc(=O)n(C)c4ccccc34)CC2C)c1 (stereo not drawn)	4%
CCOC(=O)C1CCCN(C(=O)Cn2nc(Cc3cccnc3)c3ccccc3c2=O)C1 (stereo not drawn)	10%
CCOC(=O)c1cnc(SCC(=O)Nc2cc(OC)cc(OC)c2)nc1N	1%
CC1CCCC(NC(=O)CC2Nc3ccccc3NC2=O)C1C (stereo not drawn)	?
CCC(=O)N1CCc2cc(OC)c(OC)cc2C1COc1ccc(C(=O)OC)cc1 (stereo not drawn)	-8%
O=C(/C=C/c1ccc2c(c1)OCO2)c1cccs1	32µM*
COc1ccccc1N1CCN(C(=O)C2CCC(Cn3c(=S)[nH]c4ccccc4c3=O)CC2)CC1 (stereo not drawn)	3%
COC(=O)c1ccc(CSc2nc3c(c(=O)n2-c2ccc(C)cc2)SCC3)o1	-5%
Cn1nnnc1SCc1c(F)cccc1F	-4%
Fc1cccc(Cl)c1Cn1nnc2c(NCc3ccccn3)ncnc21	-5%
COC(=O)[C@@]1(Cc2ccc(F)cc2)[C@H]2c3cc(C(=O)N4CCCC4)n(CCc4c[nH]c5ccc(OC)cc45)c3C[C@H]2CN1C(=O)c1ccccc1	6%
C(=C\c1ccccc1)/CSc1nnc(-c2cnccn2)n1Cc1ccco1	32µM*
CN1C(=O)C(O)(CC(=O)c2cccc(-n3cccc3)c2)c2ccccc21 (stereo not drawn)	0%
Cc1cc(C(=O)OCC(=O)Nc2nc(-c3ccccc3)cs2)c(C)o1	8%
COc1ccccc1OCCCCCc1c(C)n[nH]c1C	-7%
CCOC(=O)COc1cc(=O)n(CC)c2ccccc12	-1%
FC(F)(F)c1cccc(N2CCN(c3nnnn3-c3ccccc3)CC2)c1	-6%
COc1ccc(OC)c(CNc2nc3ccccc3n2CCN2CCCCC2)c1	1%
O=C(NCCOC(=O)C1COc2ccccc2O1)c1cccnc1 (stereo not drawn)	1%
CCCC(=O)C1=C(O)C(C(=O)OC)C(C)(C)CC1=Nc1ccccc1 (stereo not drawn)	3%
COc1ccccc1N1CCN(C(=O)Nc2cccc(C)c2)CC1	7%
COc1ccccc1NC(=O)N1CCN(c2ncccn2)CC1	12%
Cc1sc2ncn(CC(=O)OC(C)C(=O)NC(C)(C)C)c(=O)c2c1C (stereo not drawn)	-7%
CC(C)(C)n1nnnc1C(c1cccs1)N(Cc1ccccc1)Cc1cccnc1 (stereo not drawn)	-4%
Cc1cc(-c2ccc(Cl)cc2)n2nc(N)nc2n1	32µM*
CCOc1ccccc1N1CCN(Cc2ccc(OC)c(OC)c2OC)CC1	3%
CCCCCCN(C(=O)CCCCCN1C(=O)NC(C2CCCCC2)C(C(=O)OCc2ccccc2)=C1C)C(C(=O)NCCCC)c1ccc(OCC(=O)OC)c(C(=O)OC)c1 (stereo not drawn)	-6%
O=C(Nc1c(-c2ccccc2)nc2ccccn12)c1ccco1	7%
COc1ccc(C(=O)N2CC=C(c3ccccc3)CC2)cc1S(=O)(=O)N1CCOCC1	1%
O=C(CSc1ncnc2nc[nH]c12)c1ccccc1	5%[11.4 µM]
COc1cccc(-c2nc(CSCC(=O)NCC3CCCO3)c(C)o2)c1 (stereo not drawn)	-8%
CCCCCOC(=O)C1[C@H]2C(=O)N(c3ccccc3CC)C[C@]23C=C[C@H]1O3 (stereo partly drawn)	8%
Cc1cc(SCC(=O)c2ccccc2)nc2ccccc12	0%[11.4 µM]
Cc1ccsc1-c1nc(CSCC(=O)N2CCN(c3ccccc3)CC2)c(C)o1	-29%
(next part)
SMILES	HSD17B inhib
Cc1cccc(OCCC(=O)Nc2c(C)n(C)n(-c3ccccc3)c2=O)c1	0%
CS(=O)(=O)Nc1cccc(-c2cncnc2NCc2ccccc2)c1	-25%
O=C(NC1CCCCCCC1)c1ccc(CNc2c(N3CCOCC3)c(=O)c2=O)cc1	-2%
Cc1ccc(-n2c(SCC(=O)Nc3ccc4c(c3)OCO4)nnc2-c2cccs2)cc1	-28%
O=C(c1cc(-c2ccc(Cl)cc2)on1)N1CCOCC1	22%
NC(=O)C[C@@H]1N[C@]2(C(=O)Nc3ccccc32)[C@@H]2C(=O)N(c3cc(C(F)(F)F)ccc3Cl)C(=O)[C@H]12	-31%
CCOC(=O)CNC(=O)CSc1nnc(-c2ccccc2OC)n1CC	0%
O=S(=O)(N1CCOCC1)N1CCN(c2ccccc2F)CC1	1%
CSCC[C@H](NC(=O)OC(C)(C)C)c1nnc(SCC(=O)Nc2ccc(C)cc2C)o1	7%
O=C(CN1C(=O)c2ccccc2S1(=O)=O)NCc1cccnc1	13%
COc1nc(N(C)C)nc(N(OC)S(=O)(=O)c2ccccc2Cl)n1	-2%
CC(C)C(c1nnnn1C1CCCC1)N1c2ccccc2CC1C (stereo not drawn)	-7%
CCCC(=O)Nc1ccccc1NC(=O)CN(C)S(=O)(=O)c1ccc(C)cc1	9%
CCOC(=O)NCc1cc(-c2nn(C)c(=O)c3ccccc23)ccc1C	-11%
COc1ccc(N(C(=O)c2cccnc2)S(=O)(=O)c2ccc3c(c2)n(C)c(=O)n3C)cc1	3%
CCCC1=C(C(=O)OCC)C(c2ccc(F)cc2)n2ncnc2N1 (stereo not drawn)	1%
Cc1cc(C)c2[nH]c(=O)c(CN(CC3CCCO3)S(=O)(=O)c3ccc4c(c3)OCCO4)cc2c1 (stereo not drawn)	25µM*
O=C(NCCCn1ccnc1)C1CC(c2cccc(Br)c2)=NO1 (stereo not drawn)	4%
N#CC(C(=O)Nc1ccccc1)=C1CCCCC1	2%
c1ccc(Nc2nc(-c3cccs3)cs2)nc1	-1%
CC(C)[C@@H](C)/C=C\[C@@H](C)[C@@H]1CC[C@H]2C3=CC=C4C[C@@H](O)CC[C@]4(C)[C@H]3CC[C@]21C	5%[11.4 µM]
O=C(Nc1ccc(F)c(F)c1)c1ccc(F)c(S(=O)(=O)N2CCOCC2)c1	10%
CCOC(=O)Cc1csc(NC(=O)c2cccnc2)n1	-10%

Structural class, the entries above with an aryl thioether with sulfur outside any ring
SMILES	HSD17B inhib
Nc1nnc(SCc2ccccc2F)n1-c1ccccc1	4%
CCOC(=O)CSc1nnc(CNC(=O)c2ccc(OC)cc2OC)n1-c1ccc(OC)cc1	-1%
Cc1cccc(CSc2nnc(-c3ccco3)n2C)c1	5%
Cn1c(=O)c2c(nc(SCc3ccccn3)n2C)n(C)c1=O	0%
CCc1c(O)nc(SCC(=O)Nc2ccccc2OC)[nH]c1=O	-5%
CCOC(=O)c1cnc(SCC(=O)Nc2cc(OC)cc(OC)c2)nc1N	1%
COC(=O)c1ccc(CSc2nc3c(c(=O)n2-c2ccc(C)cc2)SCC3)o1	-5%
Cn1nnnc1SCc1c(F)cccc1F	-4%
C(=C\c1ccccc1)/CSc1nnc(-c2cnccn2)n1Cc1ccco1	32µM*
O=C(CSc1ncnc2nc[nH]c12)c1ccccc1	5%[11.4 µM]
Cc1cc(SCC(=O)c2ccccc2)nc2ccccc12	0%[11.4 µM]
Cc1ccc(-n2c(SCC(=O)Nc3ccc4c(c3)OCO4)nnc2-c2cccs2)cc1	-28%
CCOC(=O)CNC(=O)CSc1nnc(-c2ccccc2OC)n1CC	0%
CSCC[C@H](NC(=O)OC(C)(C)C)c1nnc(SCC(=O)Nc2ccc(C)cc2C)o1	7%

Screening results as filed in PubChem BioAssay.

Only part of the results is shown (hit frequency here may not be typical).
